Screening data (PubChem)
Env fusion inh – blocks HIV Env-driven cell-cell fusion; AID 651610; HeLa-JRFL Env/CEM21 cell fusion, luciferase; inhibition, % at 12.3 µM; hit rate 1.1% among 360,000;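 active = mean replicate inhibition score of at least 50 and every replicate individually at or above 50; inconclusive = only one of the two criteria met; inactive = mean below 50 and not all replicates reaching 50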;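 also: 0% = plate neutral controls and 100% = maraviroc near 300 nM; one replicate is shown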
Yeast UUG start – yeast start codon fidelity modulation; S. cerevisiae UUG-firefly luciferase reporter, luminescence/redox ratio; activity score, % at 18.7 µM; hit rate 0.13% among 350,000; AID 602363;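 active = replicate mean at a twofold rise or more, about +100% in these data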;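 also: firefly luciferase made from a UUG start codon reports start codon fidelity; reporter light over untreated wells divided by growth signal over untreated wells; some hits fall short of that in this replicate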
eIF4H inh – inhibitors of RNA binding by human eIF4H. inhibition, % at 35 µM. eIF4H fluorescence polarization binding assay. hit rate 0.94% among 290,000. Q15056. AID 2012;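 active = 50% or more with normal probe brightness, or confirmed in later tests; inconclusive = above 50% with abnormal brightness, or retests that disagree; inactive = below 50% or failed in later tests; about a fifth of its hits are not listed in these tables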;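 also: calls also rest on retests at 20 µM and on dose response follow-up; 0% = protein and probe with vehicle and 100% = probe without protein; strong numbers were not always called active; many hits fall short of the cut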
Rce1 inh – blocks yeast Ras-converting enzyme; hit rate 0.27% among 290,000; Q03530; AID 2563; yeast membranes, quenched prenylated peptide cleavage fluorescence; calls only;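 active = fall in fluorescence gain of 50% or more versus controls, with final raw signal at or below 3038400; inconclusive = same 50% fall but final raw signal above 3038400; inactive = fall in fluorescence gain under 50%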;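 also: plate controls were neutral control wells for no effect and wells lacking membranes for full effect; tested at 10 µM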
Target sequence (Q03530 whole entry, looked up): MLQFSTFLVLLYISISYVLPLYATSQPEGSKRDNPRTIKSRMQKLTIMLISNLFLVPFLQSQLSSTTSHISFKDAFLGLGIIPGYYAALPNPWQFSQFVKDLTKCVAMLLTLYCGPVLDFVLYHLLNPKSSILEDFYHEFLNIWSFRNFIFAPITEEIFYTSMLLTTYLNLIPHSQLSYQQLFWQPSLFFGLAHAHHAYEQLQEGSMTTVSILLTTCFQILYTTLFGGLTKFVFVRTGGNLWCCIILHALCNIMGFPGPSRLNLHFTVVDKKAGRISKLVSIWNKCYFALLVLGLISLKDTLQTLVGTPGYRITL
PABP FP inh – PABP-poly(A) binding inhibition; P11940; PABP-poly(A) RNA binding, fluorescence polarization; inhibition, % at 35 µM; hit rate 1% among 290,000; AID 2014;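 active = 50% or more with normal probe brightness, or confirmed in later tests; inconclusive = above 50% with abnormal brightness, or retests that disagree; inactive = below 50% or failed in later tests; about a fifth of its hits are not listed in these tables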;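 also: calls also rest on retests at 20 µM and on dose response follow-up; controls were probe without protein and protein plus probe with vehicle; some compounds called inactive have numbers as strong as hits; many hits fall short of the cut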
Target sequence (P11940 whole entry, looked up): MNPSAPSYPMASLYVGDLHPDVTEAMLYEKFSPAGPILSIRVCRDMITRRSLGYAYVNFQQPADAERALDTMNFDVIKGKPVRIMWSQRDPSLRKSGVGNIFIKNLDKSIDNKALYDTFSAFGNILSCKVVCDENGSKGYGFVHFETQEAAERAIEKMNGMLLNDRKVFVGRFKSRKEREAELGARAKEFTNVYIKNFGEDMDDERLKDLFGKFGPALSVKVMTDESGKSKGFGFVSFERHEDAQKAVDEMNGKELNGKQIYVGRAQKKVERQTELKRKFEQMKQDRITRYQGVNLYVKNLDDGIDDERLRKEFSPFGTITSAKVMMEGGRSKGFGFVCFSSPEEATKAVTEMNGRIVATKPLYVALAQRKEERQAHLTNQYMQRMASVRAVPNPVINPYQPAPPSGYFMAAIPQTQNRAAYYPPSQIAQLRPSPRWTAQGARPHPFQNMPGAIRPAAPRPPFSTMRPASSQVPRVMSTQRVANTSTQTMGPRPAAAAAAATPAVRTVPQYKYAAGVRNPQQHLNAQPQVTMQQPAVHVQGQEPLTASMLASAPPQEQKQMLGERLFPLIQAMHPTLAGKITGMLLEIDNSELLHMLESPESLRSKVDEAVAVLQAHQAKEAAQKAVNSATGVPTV
CSC inhib – cancer stem cell inhibition | hit rate 1.1% among 300,000 | cancer stem cell-like cells viability, luminescence | AID 2717 | inhibition, % at 7.5 µM;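 active = mean at 75% or more and at least half the replicates too; inconclusive = mean and replicates disagree; tested in HMLE shEcad cells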;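 also: 0% = median of negative and 100% = median of positive control wells; the first replicate is given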
MT1-MMP act inh – inhibitors of human MT1-MMP activation; P50281; HT1080 RFP-PRO-GFP cells, GFP/RFP ratio fluorescence, overnight; percent of plate control window, DMSO zero; GFP/RFP ratio change, % at 20 µM; hit rate 0.061% among 360,000; AID 651647;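 active = GFP/RFP ratio change of at least 30% with cell ATP level not reduced by more than half and red fluorescence within 50% of control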; also: strong numbers were not always called active
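Test system: HT1080 cells expressing an RFP-PRO-GFP fluorescent reporter construct / Compound dosing: single-point 20 µM compound, 1% DMSO / Schedule: cells overnight before dosing, compound overnight, 37 °C, 5% CO2 / Evaluation: GFP/RFP fluorescence ratio / Control set: DMSO and RFP-L50D-GFP cell wells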
MT1-MMP act inh RFP – second read-out of MT1-MMP act inh, no call of its own (marks repeat the call); RFP signal change, %; measured here: RFP expression control read;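 0 = vehicle wells; hits needed this value within 50% of zero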
* marks the source's active call; other numbers are inactive results; i = inactive; u = inconclusive; x = no result given. Outcome played no part in choosing rows. Share with any hit: about 2.9%.

SMILES	Env fusion inh	Yeast UUG start	eIF4H inh	Rce1 inh	PABP FP inh	CSC inhib	MT1-MMP act inh	MT1-MMP act inh RFP
NC(=O)c1ccccc1NC(=O)/C=C/c1cccc(Cl)c1	-89	-18	-10	i	-1	-1	3	-3
O=C1CSC(c2ccccc2)N1Nc1nc(N2CCOCC2)nc(N2CCOCC2)n1 (stereo unspecified)	-47	x	u	i	u	-2	-2	4
Cc1ccc(NC(=O)C2CCCN(c3ncccn3)C2)cc1F (stereo unspecified)	-188	-12	-12	i	0	-6	-1	-4
CCN(CC(=O)Nc1cccc(C(C)=O)c1)S(=O)(=O)c1ccc(OC)cc1	x	-2	-14	i	2	x	-2	-1
COc1ccc(OC(C)=O)c(C2c3cc(OC)c(OC)cc3CCN2C(C)=O)c1 (stereo unspecified)	x	-13	4	i	-8	-10	1	2
CC1(c2ccccc2Cl)NC(=O)N(CC(=O)NCCC2=CCCCC2)C1=O (stereo unspecified)	-9	5	2	i	-3	-26	0	3
COc1ccccc1C(=O)N1CCC(N2CCN(c3ccccc3)CC2)CC1	1	x	15	i	14	-1	-1	-1
COc1cccc(NS(=O)(=O)c2c(C)nc3sccn3c2=O)c1	10	-20	0	i	-4	-14	4	-2
COc1ccc(-n2c(C)c(C(C)=O)c3cc(OC(C)=O)ccc32)cc1	50	-18	0	i	-6	10	-13	-8
O=C1NC(CCc2ccccc2)C(=O)N1CCOc1ccccc1 (stereo unspecified)	-5	x	2	i	-5	-1	-3	5
Cc1ccc(S(=O)(=O)NCC(=O)NCc2ccncc2)cc1	x	-17	5	i	-8	-8	1	2
CCOC(=O)C1CCN(Cc2cn(C)nc2-c2ccc(Oc3ccccc3)cc2)CC1	10	x	-6	i	-4	-10	-1	7
O=C(NCCN1CCCCC1)Nc1ccc(F)cc1	-2	-20	4	i	6	-18	0	3
CC(C)c1nnc(NC(=O)C2CCCN2C(=O)Nc2ccccc2)s1 (stereo unspecified)	-9	-11	5	x	-3	-14	0	1
O=C(C1CCCN(S(=O)(=O)Cc2ccccc2)C1)N1CCc2ccccc21 (stereo unspecified)	-55	3	-13	i	-5	1	3	-1
CCOc1ccc(NC(=O)CN(C)C(=O)c2cccnc2Sc2ccccc2Cl)cc1OCC	x	x	x	i	x	-20	5	4
CN(C(=O)c1cccc(NC(=O)Cc2cccc(NC(=O)C3CCN(C(=O)C4CCCCC4)CC3)c2)c1)C1CCC1	-6	6	x	x	x	x	3	-3
COc1ccccc1CNC(=O)CCCc1cn(C)c2ccccc12	-9	-18	-6	i	5	7	15	-7
O=C(CSc1nnc(-c2ccc(O)cc2)n1-c1ccccc1)CC(=O)Nc1ccccc1	x	-19	5	i	-10	9	1	2
COCCCNC(=O)c1ccc([N+](=O)[O-])c(Cl)c1	6	-6	9	i	13	-4	1	2
Nn1c(SCC(=O)NCC2CCCO2)nnc1-c1ccco1 (stereo unspecified)	x	-17	x	x	x	1	1	2
COC(=O)c1cc(N=Cc2c(O)c3ccccc3oc2=O)cc(C(=O)OC)c1	x	-13	-6	i	-11	-3	-1	3
CCOC(=O)[C@@H]1[C@H]2COc3cc(OC)ccc3[C@H]2N2C(=O)N(c3ccc(Cl)cc3)C(=O)[C@]12C	-24	-14	x	x	x	-13	2	-9
CCOc1ccc(C(C)=O)cc1CSc1nnnn1-c1ccc(O)cc1	1	-13	-2	i	-2	-3	-4	-14
Cc1cc2c(=O)n(CC(=O)NCC(=O)Nc3ccc(C(C)C)cc3)cnc2s1	1	x	-20	i	9	9	1	1
c1ccc(-c2nnn(C34CC5CC(CC(C5)C3)C4)n2)cc1	-61	-1	-5	i	-5	51	0	-1
COc1ccc(NC(=O)CSc2nnc(-c3ccccn3)n2-c2ccccc2)cc1OC	-1	-25	0	i	3	-11	8	1
O=C(c1c(F)cccc1F)N1CCCC(c2nc(-c3cccs3)no2)C1 (stereo unspecified)	-6	-1	13	i	10	x	4	-1
COC(=O)C1C(=O)C(C(=O)/C=C/c2ccccc2)C(=O)CC1(C)C (stereo unspecified)	9	x	13	i	9	9	4	-7
COc1cccc(CN(C)CC(=O)Nc2sc3c(c2C#N)CCC3)c1OC	7	x	23	i	0	x	-6	-14
CCn1cnc2cc(NC(=O)c3ccco3)ccc21	-50	-38	-1	i	-8	2	0	-3
O=C(NCCCN1CCCC(O)C1)c1cc(COc2ccc(F)cc2F)on1 (stereo unspecified)	6	-13	1	i	-12	-14	0	1
COc1ccccc1NC(=O)c1ccccc1Nc1ccccc1	12	9	-3	i	0	30	3	0
Cn1c(=N)n(CC(=O)c2ccc(F)cc2)c2ccccc21	-31	-35	11	i	0	x	-1	2
CC12CC3CC(C)(C1)CC(C(=O)NC(=S)N1CCOCC1)(C3)C2	x	-28	10	i	9	-3	0	3
O=C(Nc1ccccc1C(=O)NCc1ccco1)Nc1cccc2ccccc12	2	x	10	i	-9	39	0	-6

Three entries drawn at random from the list so far, as already listed:
SMILES	Env fusion inh	Yeast UUG start	eIF4H inh	Rce1 inh	PABP FP inh	CSC inhib	MT1-MMP act inh	MT1-MMP act inh RFP
Cn1c(=N)n(CC(=O)c2ccc(F)cc2)c2ccccc21	-31	-35	11	i	0	x	-1	2
O=C(Nc1ccccc1C(=O)NCc1ccco1)Nc1cccc2ccccc12	2	x	10	i	-9	39	0	-6
COc1cccc(CN(C)CC(=O)Nc2sc3c(c2C#N)CCC3)c1OC	7	x	23	i	0	x	-6	-14

Going on with the list:
SMILES	Env fusion inh	Yeast UUG start	eIF4H inh	Rce1 inh	PABP FP inh	CSC inhib	MT1-MMP act inh	MT1-MMP act inh RFP
CCOC(=O)[C@H]1[C@H]2COc3ccc(Cl)cc3[C@H]2N2C(=O)CNC(=O)[C@@]12C	-9	-13	x	x	x	0	3	1
CCCCC[C@@H]1[C@H]2[C@H]3C(=O)N(c4ccccc4)C(=O)[C@H]3CC(=O)[C@H]2[C@H](c2ccccc2)N1S(=O)(=O)c1ccc(C)cc1	-49	-15	x	x	x	x	3	8
COc1cc(-c2noc(C3CCCN(C(=O)c4ccccc4)C3)n2)cc(OC)c1OC (stereo unspecified)	14	13	-1	i	7	-11	13	0
COc1ccc(-c2nc(-n3c(C)c(C(C)=O)c(C(C)=O)c3C)sc2C)cc1	20	-1	-1	i	-2	-10	-2	-9
O=C(c1ccc(Cl)cc1)N1CCn2c1nc1ccccc12	-25	-10	0	i	5	4	3	1
CC(=O)c1c(C)oc2ccc(N(C(C)=O)S(=O)(=O)c3ccc(Br)cc3)cc12	4	-4	9	i	-3	1	-2	-16
Cc1ccc2[nH]c(=O)c(CN(Cc3ccccc3)C(=S)NCCCN(C)C)cc2c1	10	-15	-8	i	-14	-2	-3	-3
CCN1C(=O)[C@H]2[C@@H](c3ccc(C)cc3)N[C@]3(CCCN(Cc4ccc(OC)cc4)C3=O)[C@H]2C1=O	-45	-5	x	x	x	x	2	5
Cc1cc(C)n(CCN(C)C(=O)CCc2nnc(CCC3CCCCC3)o2)n1	-22	x	2	i	-5	-12	-6	-2
Cc1ccc(NC2CCCN(C(=O)c3cccc4nccnc34)C2)cc1C (stereo unspecified)	x	-1	2	i	18	-14	-2	1
Nc1n[nH]c(-c2cccc([N+](=O)[O-])c2)n1	x	-17	-8	i	-18	-18	1	-1
Nc1ccc(C(=O)OC2CCOC2=O)cc1[N+](=O)[O-] (stereo unspecified)	x	-18	-3	i	-5	-8	1	-2

Profiles, looked up by structure:
`COc1cccc(CN(C)CC(=O)Nc2sc3c(c2C#N)CCC3)c1OC` is entered as Env fusion inh = 7; Yeast UUG start = x; eIF4H inh = 23; Rce1 inh = i; PABP FP inh = 0; CSC inhib = x; MT1-MMP act inh = -6; MT1-MMP act inh RFP = -14
`CCOC(=O)[C@H]1[C@H]2COc3ccc(Cl)cc3[C@H]2N2C(=O)CNC(=O)[C@@]12C` is entered as Env fusion inh = -9; Yeast UUG start = -13; eIF4H inh = x; Rce1 inh = x; PABP FP inh = x; CSC inhib = 0; MT1-MMP act inh = 3; MT1-MMP act inh RFP = 1

Further compounds.
SMILES	Env fusion inh	Yeast UUG start	eIF4H inh	Rce1 inh	PABP FP inh	CSC inhib	MT1-MMP act inh	MT1-MMP act inh RFP
N#Cc1ccc(OCC(=O)N2CCN(c3ccc(C(F)(F)F)cn3)CC2)cc1	x	4	x	x	x	6	5	-14
Cc1cc(N2CCCCC2)nc(N)n1	-31	-8	0	i	-4	-8	-1	2
O=C(CN1C(=O)NC2(CCCCCC2)C1=O)NCc1ccc(Cl)cc1	x	-17	x	x	x	-21	0	-2
CCOc1cc(C2NC(=O)NC(O)(C(F)(F)F)C2C(=O)c2ccc(OC)cc2)ccc1O (stereo unspecified)	x	9	-4	i	0	x	5	6
CCOc1cc(/C=C(\C#N)C(=O)Nc2ccccn2)ccc1O	-5	-11	-9	i	0	-6	-1	-1
C1=C(c2ccccc2)Nc2nnnn2C1c1cccs1 (stereo unspecified)	x	-3	0	i	2	3	-20	1

Grouped by structure: the compounds so far containing a CF3 group
SMILES	Env fusion inh	Yeast UUG start	eIF4H inh	Rce1 inh	PABP FP inh	CSC inhib	MT1-MMP act inh	MT1-MMP act inh RFP
N#Cc1ccc(OCC(=O)N2CCN(c3ccc(C(F)(F)F)cn3)CC2)cc1	x	4	x	x	x	6	5	-14
CCOc1cc(C2NC(=O)NC(O)(C(F)(F)F)C2C(=O)c2ccc(OC)cc2)ccc1O (stereo unspecified)	x	9	-4	i	0	x	5	6
